Screening results deposited in PubChem by several laboratories.
HNF4A DNA FP – change in binding of human HNF4 alpha to DNA | HNF4a-FITC DNA binding, fluorescence polarization, 1 h | activity change, % at 10 µM | 0.3% of 360,000 active | AID 1224865; in the data active = activity change above about 30%, passing the limit was not always enough;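 also: controls were the assay level and a saturating level of protein; the project sought stronger binding though the title names inhibitors; some compounds called inactive have numbers as strong as hits; positive values seem to mean higher polarization but the record does not say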
UCH37 inh – inhibitors of human deubiquitinating enzyme UCH37 | Q9Y5K5 | purified proteasome/UCH37, Ub-AMC cleavage fluorescence | inhibition, % (no concentration beside the values) | 0.33% of 330,000 active;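 active = mean of two replicates above 20%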;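 also: 0% = compound-free wells with enzyme and 100% = wells lacking proteasome; stock transfer was 100 nL into about 20 µL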
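System: Proteasome-associated human UCH37 deubiquitinase; Input: 0.15 nM proteasome in added enzyme buffer; Also added: Ub-AMC substrate from 1 µM stock; Incubation: 30 min compound-proteasome preincubation then 25 min substrate reaction, room temperature; Detection: fluorescence, ex 355 nm, em 460 nm; Read-out: % inhibition of Ub-AMC cleavage fluorescence; Benchmarks: no-proteasome and no-compound wells.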
LANA-H2B inh – blocks KSHV LANA binding to histone H2A/H2B; AID 2629; Q9QR71; cell-free LANA-H2A/H2B peptide, fluorescence polarization; 0.6% of 320,000 active; inhibition, % (no concentration beside the values); in the data active = inhibition mostly above about 10%, no sharp cut-off; inactive = mostly below about 6.7%;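 also: stock transfer was 7.5 nL into about 10 µL; 0% = median of vehicle wells and 100% = median of positive control wells; one replicate is shown; the record names a cut of 25% in any replicate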
Target sequence (Q9QR71 whole entry, looked up): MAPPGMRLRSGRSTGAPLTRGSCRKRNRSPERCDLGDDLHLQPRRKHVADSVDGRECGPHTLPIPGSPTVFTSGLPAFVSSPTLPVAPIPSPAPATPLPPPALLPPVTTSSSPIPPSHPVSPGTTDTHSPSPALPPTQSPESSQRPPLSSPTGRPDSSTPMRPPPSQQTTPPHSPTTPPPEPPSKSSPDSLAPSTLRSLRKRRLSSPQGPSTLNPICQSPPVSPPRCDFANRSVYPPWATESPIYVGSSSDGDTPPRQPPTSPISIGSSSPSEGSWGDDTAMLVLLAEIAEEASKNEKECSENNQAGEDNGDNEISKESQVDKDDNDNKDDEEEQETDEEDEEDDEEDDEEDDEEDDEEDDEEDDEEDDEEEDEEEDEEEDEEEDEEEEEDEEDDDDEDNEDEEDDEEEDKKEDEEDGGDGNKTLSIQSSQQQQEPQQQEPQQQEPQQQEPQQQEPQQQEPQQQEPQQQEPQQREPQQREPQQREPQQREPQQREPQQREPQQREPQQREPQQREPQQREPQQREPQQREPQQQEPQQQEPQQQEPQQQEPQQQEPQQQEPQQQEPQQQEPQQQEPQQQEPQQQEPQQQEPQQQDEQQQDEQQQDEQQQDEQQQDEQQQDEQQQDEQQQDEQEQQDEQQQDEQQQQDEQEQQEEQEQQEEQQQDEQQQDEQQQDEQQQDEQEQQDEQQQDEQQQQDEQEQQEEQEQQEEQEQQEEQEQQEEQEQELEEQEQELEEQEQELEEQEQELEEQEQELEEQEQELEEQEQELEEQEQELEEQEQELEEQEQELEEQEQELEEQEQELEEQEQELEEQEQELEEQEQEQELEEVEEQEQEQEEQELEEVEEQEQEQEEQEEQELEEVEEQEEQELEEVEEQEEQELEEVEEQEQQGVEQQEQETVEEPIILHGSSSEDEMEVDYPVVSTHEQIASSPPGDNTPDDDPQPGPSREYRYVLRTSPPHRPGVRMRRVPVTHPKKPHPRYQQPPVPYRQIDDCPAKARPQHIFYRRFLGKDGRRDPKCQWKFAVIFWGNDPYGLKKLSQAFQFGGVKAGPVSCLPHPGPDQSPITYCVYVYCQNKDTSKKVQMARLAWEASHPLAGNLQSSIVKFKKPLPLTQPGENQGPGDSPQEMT
B2AR ag – agonists of human beta-2 adrenergic receptor inducing internalization; P07550; Am2.2-beta2AR cells, FAP receptor internalization, flow cytometry; reference of the scale not given here; 0.43% of 340,000 active; AID 504454; response, % (no concentration beside the values);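 active = response above a set limit, near 3 SD of response in nonfluorescent compounds, cut at about 42% in these data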;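 also: stock transfer was 100 nL into about 11 µL; a reference agonist was the positive control; negative values mostly stem from fluorescent compounds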
FGF22 binding – binders of recombinant human FGF22 by thermal shift. 1.5% of 340,000 active. calls only at 9.99 µM. Q9HCT0. SYPRO orange fluorescence; percent of sucrose octasulfate shift, DMSO zero;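 active = melting point raised past a set limit in the mean and every replicate; inconclusive = no clear call; three in four hits are not shown here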
ALR H2O2 inh – inhibitors of human sulfhydryl oxidase ALR; P55789; purified ALR, DTT oxidation, H2O2 HRP-luminol luminescence; inhibition, % (concentration not given with the values); 3.8% of 290,000 active; AID 485317;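 active = mean and each replicate at 75% or more; inconclusive = only one of the two met; inactive = neither met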;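 also: stock transfer was 7.5 nL into about 7.5 µL; 0% = neutral wells and 100% = wells with inactivated enzyme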
Ecoli growth – blocks Escherichia coli growth | OD600, 23 h; stronger effect = lower value | 0.21% of 330,000 active | OD600 absorbance (test concentration not listed);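 active = OD600 absorbance below the run mean of sample wells minus 3.6 SD, in any replicate, cut at about 0.56 in these data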;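 also: stock transfer was 300 nL into about 60 µL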
Numbers without * were called inactive; i = inactive; ? = inconclusive; / = not tested or not shown.

SMILES	HNF4A DNA FP	UCH37 inh	LANA-H2B inh	B2AR ag	FGF22 binding	ALR H2O2 inh	Ecoli growth
O=S(=O)(N[C@H]1C[C@@H](NS(=O)(=O)OCC(Cl)(Cl)Cl)C2CCCCC21)OCC(Cl)(Cl)Cl (stereo partly specified)	-0.9	-0.3	5.0	8	i	-6	/
CC(/C=C1\SC(=S)N(C(C(=O)O)c2ccccc2)C1=O)=C\c1ccccc1 (stereo unspecified)	-69	12	0.2	10	i	10	0.62
COc1ccc(CN2CCC(CO)(Cc3ccccc3)CC2)cc1Cn1cccn1	2.9	2.6	2.6	10	i	-4	0.67
CCN(CC)CCOc1ccccc1OC	0.3	3.9	-1.7	-6	i	-2	0.66
O=C1c2cccc3cccc(c23)C(=O)N1c1cccc(O)c1	-3.0	1.2	2.6	-2	i	/	0.65
CC(C)(C)NC(=O)COC(=O)c1ccccc1NC(=O)c1ccco1	0.9	-8.9	3.0	-3	/	-3	0.62
COc1ccccc1CNC(=O)N1CCN(S(=O)(=O)c2ccc(C)cc2)CC1	-4.7	0.9	5.8	0	i	1	0.67
Cc1ccc(NC(=O)CCn2cc(C(F)(F)F)ccc2=O)cc1	-1.1	2.2	-0.1	0	i	-4	0.68
C=CCN1C(=NC(=O)CCC)SC2CS(=O)(=O)CC21 (stereo unspecified)	-10	4.8	0.8	-4	/	/	0.66
CC1CN(C(=O)N[C@@H](Cc2ccccc2)C(=O)O)CC(C)O1 (stereo partly specified)	0.2	-1.7	-0.5	16	/	-14	0.77
COc1ccc(N(Cc2ccccc2)S(=O)(=O)c2cc(C(=O)O)ccc2Cl)cc1	1.6	-36	1.4	-7	i	5	0.67
O=C1OC(CC(=O)N(Cc2nnc(-c3ccccc3Cl)o2)C2CC2)c2ccccc21 (stereo unspecified)	8.2	4.7	20*	-7	i	-4	0.66
O=C(NC1CCCC1)c1ccc(CN2CCOCC2)cc1	1.3	1.6	4.3	-2	/	-5	0.72
COc1cc(Cl)ccc1OCc1cc(C(=O)N2CCCCC2c2cccnc2)no1 (stereo unspecified)	-5.8	3.1	-2.0	-6	i	-7	0.68
CC(C)c1nnc(SCC(=O)NC2CCCC2)n1C	0.2	5.0	-0.7	-3	i	4	0.71
Cc1ncn(C23CC4CC(CC(O)(C4)C2)C3)n1	0.9	0.8	-1.1	8	/	-7	0.68
c1ccc2c(c1)[nH]c1c(N3CCC4(CC3)OCCO4)ncnc12	0.7	-11	-15	11	/	-4	0.7
O=C(CSc1ccsc1[N+](=O)[O-])N1CCN(c2ccccn2)CC1	-8.6	8.0	8.4	0	i	22	0.66
O=C(CCNC(=O)Cn1ccc2ccccc2c1=O)NCCN1CCN(c2ccccc2F)CC1	3.5	4.1	3.4	-4	/	-5	0.75
COc1ccccc1-n1c(C)cc(SC)c(C(C)=O)c1=S	0.8	5.4	/	-5	/	/	0.8
COC(=O)[C@]1(C)N[C@H](CN(C)C(=O)c2ccccc2)[C@@H]2C(=O)N(C)C(=O)[C@@H]21	1.4	0.0	/	4	i	0	0.7
COc1ccc(CN(C)C(=O)c2cc(-c3ccc(C)cc3C)nc3ccccc23)c(OC)c1OC	3.1	0.6	-0.9	24	i	-2	0.66
CCCC(N)CCCCCC(=O)O (stereo unspecified)	-3.6	2.9	/	-3	/	/	0.65
CCn1c(=O)n(CC)c2cc(N3CCCC3)c(NC(=O)c3ccc(OC)c(Br)c3)cc21	0.3	-2.8	-2.2	13	i	-32	0.71
O=C(O)CCCn1nc(-c2ccccc2)c2ccccc21	-2.5	1.5	-1.7	2	i	59	0.67
SMILES	HNF4A DNA FP	UCH37 inh	LANA-H2B inh	B2AR ag	FGF22 binding	ALR H2O2 inh	Ecoli growth
CC(OC(=O)c1cc(-c2cccnc2)nc2ccccc12)C(=O)Nc1ccc2ccccc2c1 (stereo unspecified)	1.6	-2.9	4.4	-10	i	-5	0.68
CN1CCN(NC(=O)c2ccc(COc3ccccc3Br)o2)CC1	0.0	2.7	3.4	-3	i	46	0.65
COc1cccc(C(=O)N2CCN(Cc3nc(CC4CC4)no3)CC2)c1	-0.3	1.7	-6.7	-8	i	/	0.7
O=C(CSCc1ccc(Cl)cc1)NCc1ccc2c(c1)OCO2	0.7	3.0	-1.5	-3	/	0	0.68
CN1CCN(C(=O)C2(NC(=O)Nc3cccc(F)c3)CCCCC2)CC1	2.5	0.3	1.6	-6	/	-5	0.71
Clc1ccc(-n2nnnc2SCc2c(-c3ccccc3)nc3sccn23)cc1	2.5	/	-2.1	-4	/	-1	/
COc1cc(CC(=O)OC2CCOC2=O)cc(OC)c1OC (stereo unspecified)	-0.5	1.1	8.7	6	/	-4	0.69
CC(=O)NCCn1c(SCC(=O)c2ccccc2)nc2ccccc2c1=O	0.1	3.9	-1.8	-8	/	31	0.67
CCOC(=O)c1c(-c2ccccc2)csc1NC(=O)CSc1nnnn1C	2.3	2.4	2.0	-7	/	-6	0.67
O=C(CCCN1CCN(c2ccccn2)CC1)c1ccc(F)cc1	2.9	2.8	3.0	-2	i	2	0.66
Cc1cc(C)n(-c2ccc(C(=O)NCc3ccc4c(c3)OCO4)cc2)n1	-1.0	2.8	-0.3	1	/	/	0.73
C=CCn1c(=O)/c(=C/c2ccc(C)o2)s/c1=C(/C#N)C(=O)c1ccccc1	50	/	-5.5	-4	/	-3	/
CCOC(=O)C(Sc1cc(-c2ccccc2)nc2ncnn12)C(C)=O (stereo unspecified)	8.1	6.2	-9.6	-2	i	-3	0.7
O=S(=O)(Nc1cccc(-c2cn3c(n2)SCC3)c1)c1cccs1	3.3	4.2	6.5	-10	i	1	0.67
O=C(O)c1ccc(N2CCCC2=O)cc1	-1.1	0.6	-0.1	-6	/	-1	0.7
COc1ccc(CNC(=O)c2cnc3n(c2=O)CCS3)cc1	0.5	2.5	5.8	-4	i	/	0.75
CCN1CCN(C(=S)c2ccc(Br)cc2)CC1	-2.3	5.6	2.1	-1	i	4	0.66
COc1cc(OC)c(NC(=O)c2c(-c3ccccc3)noc2C)cc1Cl	-1.8	-16	-0.8	-1	/	/	0.67
Cc1ccc([N+](=O)[O-])c(OCC(=O)OCC(=O)c2ccccc2)c1	-0.6	2.9	-0.4	3	i	-9	0.66
COC(=O)[C@]1(C)N[C@H](CN(C)S(=O)(=O)c2ccc(C)cc2)[C@@H]2C(=O)N(Cc3ccccc3)C(=O)[C@@H]21	-1.4	-0.5	5.1	6	/	/	0.68
CC(C(Sc1ccccc1N)c1ccccc1)[N+](=O)[O-] (stereo unspecified)	-3.0	/	-12	33	i	?	/
COc1ccc(N(C)C(=O)CN(C)S(=O)(=O)c2ccc3c(c2)c(=O)n(C)c(=O)n3C)c(OC)c1	-4.4	-0.7	-1.2	-12	i	-18	0.68
Cn1cnnc1Sc1ccc(C(=O)OCC(=O)NC2CC2)cc1[N+](=O)[O-]	1.7	3.0	/	0	i	/	0.67
S=c1[nH]nc(-c2ccccc2Br)n1Cc1ccccc1	-4.0	1.7	-0.7	-25	i	?	0.67
Cc1cccc(Nc2ccc3nonc3c2[N+](=O)[O-])c1C	0.7	-1.1	1.6	-7	i	/	0.7
SMILES	HNF4A DNA FP	UCH37 inh	LANA-H2B inh	B2AR ag	FGF22 binding	ALR H2O2 inh	Ecoli growth
CCN(CC)CCNC(=O)c1ccc(NC(=O)c2cc(-c3ccncc3)nc3ccccc23)cc1	-1.9	2.6	-17	8	i	-5	0.71
CC(=O)OCCNc1cc(SC(C)C)c2nonc2c1[N+](=O)[O-]	2.7	8.3	-5.7	-8	i	-39	0.71
COc1cc(Cl)ccc1OCc1cc(C(=O)N2CCC(N(C)C)C2)no1 (stereo unspecified)	1.8	4.6	-4.6	-6	i	-5	0.68
O=S(=O)(c1ccc(F)cc1)n1cnc2ccccc21	-2.5	2.6	-6.8	8	i	-5	0.66
Cc1ccc2cc(CCNC(=O)c3ccc4c(c3)OCO4)c(=O)[nH]c2c1	0.1	3.6	-1.8	-17	i	-3	0.72
COc1cc(OC)nc(Oc2ccccc2C(=O)Oc2ccc(C)cc2)n1	0.5	2.4	-0.4	-1	i	6	0.67
CCOC(=O)c1c(C)noc1CP(=O)(c1ccccc1)c1ccccc1	-1.7	-1.6	-6.1	41	/	12	0.7
CCOC(=O)C(=O)CC(=O)c1ccc2c(c1)OCCO2	-1.9	3.2	-4.5	5	i	26	0.67
COC(=O)c1ccc(COC(=O)CNC(=O)c2ccc(OC)cc2)cc1	0.3	-2.3	6.1	1	i	/	0.67
COc1cccc(C(=O)N2CCN(Cc3ccccc3C(F)(F)F)CC2)c1	-5.9	2.9	-2.3	-10	/	-14	0.7
COc1cc2sc(C)nc2c2sccc12	-1.2	4.4	-1.5	1	/	-4	0.69
Cc1nn(-c2ccccc2)c2sc(C(=O)OCn3nnc4ccccc4c3=O)cc12	-1.5	-6.1	/	11	i	/	0.69
COC(=O)c1ccc(C(=O)N2CCCC(Nc3ccc(C(C)C)cc3)C2)nc1 (stereo unspecified)	-2.1	5.0	0.0	5	i	51	0.69
O=C(COC(=O)c1ccc(S(=O)(=O)C(F)F)cc1)NC(=O)NC1CCCCC1	0.5	2.2	1.5	-5	/	-3	0.69
CC(=O)N1c2ccc(S(=O)(=O)N(C)CC(=O)Nc3cccc(C)c3)cc2CC1C (stereo unspecified)	-6.5	3.7	2.5	-1	i	1	0.69
Cc1nnc(N(C)C(=O)c2ccccn2)s1	-6.6	1.1	4.1	6	/	1	0.74
Oc1c(Cl)cc(Cl)cc1C1Nc2ccccc2-n2cccc21 (stereo unspecified)	1.1	5.8	1.9	-1	i	-3	0.67
Cn1c(=O)c2c(nc(N3CCCCCC3)n2Cc2cccc3ccccc23)n(C)c1=O	-1.1	0.1	0.3	6	/	-7	0.72
Cc1cc(NC(=S)N(CCN2CCCCC2)Cc2ccco2)ccc1Cl	-1.9	4.2	-3.8	3	i	-14	0.67
C=C(C)C(=O)OC1(C(F)(F)F)Oc2cc(C)ccc2NC1=O (stereo unspecified)	-0.7	3.2	1.1	0	/	98*	0.66
CC(C)CNC(=O)CN(C)S(=O)(=O)c1ccc(F)cc1	-1.3	3.6	0.0	-1	i	-3	0.7
O=S(=O)(Cc1ccccc1Cl)c1ncn[nH]1	0.5	-0.1	-0.6	-4	i	-1	0.66
O=C(COC(=O)COc1ccccc1F)Nc1ccc(Cl)cn1	-0.5	0.0	3.9	-1	i	7	0.74
O=C(NCC1CCCN(C(=O)c2cccnc2)C1)c1ccc(-c2ccccc2)cc1 (stereo unspecified)	1.1	4.6	-0.2	-2	/	/	0.7
O=C(c1ccc(S(=O)(=O)NCc2ccco2)cc1)N1CCCC(C(F)(F)F)C1 (stereo unspecified)	0.6	-1.1	-0.9	2	i	1	0.68
CC[C@]12c3[nH]c4cc(-c5ccco5)ccc4c3CCN1C(=O)[C@@H](CC(=O)NCCC1=CCCCC1)C[C@@H]2C(=O)N1CCN(C(=O)C2CC2)CC1	2.7	-20	/	2	i	/	0.72
Cc1nn(C)c(C)c1NC(=O)c1ccc(Br)o1	-3.8	1.6	1.5	-4	i	-8	0.68
CCCS(=O)(=O)N1CCC(C(=O)NCC2CCCO2)CC1 (stereo unspecified)	-1.1	0.3	1.0	2	/	-13	0.73

3 of these compounds, set out differently:
C=C(C)C(=O)OC1(C(F)(F)F)Oc2cc(C)ccc2NC1=O (stereo unspecified)
  HNF4A DNA FP = -0.7
  UCH37 inh = 3.2
  LANA-H2B inh = 1.1
  B2AR ag = 0
  FGF22 binding = /
  ALR H2O2 inh = 98*
  Ecoli growth = 0.66

CC(C)CNC(=O)CN(C)S(=O)(=O)c1ccc(F)cc1
  HNF4A DNA FP = -1.3
  UCH37 inh = 3.6
  LANA-H2B inh = 0.0
  B2AR ag = -1
  FGF22 binding = i
  ALR H2O2 inh = -3
  Ecoli growth = 0.7

O=S(=O)(Cc1ccccc1Cl)c1ncn[nH]1
  HNF4A DNA FP = 0.5
  UCH37 inh = -0.1
  LANA-H2B inh = -0.6
  B2AR ag = -4
  FGF22 binding = i
  ALR H2O2 inh = -1
  Ecoli growth = 0.66

This is a subset; rates above refer to the full screens.
